Source: PubChem
Mtb H37Rv – Mycobacterium tuberculosis H37Rv growth inhibition, cell based, confirmatory dose response (AID 1949); most inactive calls were filed without a number and no value below 0 was filed; inhibition, % at 10 µg/mL, or IC50 in µg/mL where a hit was titrated; 100,000 compounds, 1.6% hits;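 active = confirmed in a dose series; inconclusive = about 50% or more but not retested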;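 note: bacteria grown 7 days with compound before Alamar blue readout; 0% = untreated bacteria and 100% = reference antibiotic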
* hit, by the source's call; i = inactive; ? = inconclusive. These rows are one share of the data; the hit share may differ from the screen's.

structure,Mtb H37Rv
CN(C)c1ccc(C(=S)N2CCN(c3ccccc3F)CC2)cc1,i
CCn1c(SCC(=O)NCc2ccccc2)nnc1-c1ccc(OC)cc1,0%
Cc1ccc(S(=O)(=O)N(CC(=O)Nc2ccccc2-c2ccccc2)c2cccc(C)c2)cc1,i
CCC(=O)Nc1nc(-c2cccs2)nc2c1c(=O)oc1ccccc12,5%
Cc1ccc2nc(SCCOc3ccccc3C)[nH]c2c1,?
CC(=O)Nc1cccc(NC(=S)Nc2cccc(C(C)=O)c2)c1,i
Cc1ccc(C(=O)CSc2nncn2C)cc1,i
Cc1ccc(NC(=O)CSc2nnc3ccccn23)c(C)c1,i
Cc1cc(C(F)F)n2nc(C(=O)Nc3c(F)cc(F)cc3Br)nc2n1,i
Cc1ccccc1-c1nnn(Cc2ccc(-c3nn[nH]n3)cc2)n1,1%

Structural class, the compounds so far containing a carbonyl joined to an NH by a bond outside any ring.
structure,Mtb H37Rv
CCn1c(SCC(=O)NCc2ccccc2)nnc1-c1ccc(OC)cc1,0%
Cc1ccc(S(=O)(=O)N(CC(=O)Nc2ccccc2-c2ccccc2)c2cccc(C)c2)cc1,i
CCC(=O)Nc1nc(-c2cccs2)nc2c1c(=O)oc1ccccc12,5%
CC(=O)Nc1cccc(NC(=S)Nc2cccc(C(C)=O)c2)c1,i
Cc1ccc(NC(=O)CSc2nnc3ccccn23)c(C)c1,i
Cc1cc(C(F)F)n2nc(C(=O)Nc3c(F)cc(F)cc3Br)nc2n1,i

The list goes on.
structure,Mtb H37Rv
CSc1nc2sc3c(c2c2n[nH]c(=S)n12)CCC3,4%
O=C(NC(=S)Nc1ccc([N+](=O)[O-])cc1)C(c1ccccc1)c1ccccc1,i
Cc1ccc(NC(=O)COc2ccc(/C=C/[N+](=O)[O-])cc2)cc1,20%
O=C(Nc1ccc2c(c1)OCCO2)c1csc2c1CCCC2,1%
CCc1ccc(CCC(=O)Nc2ccc(S(=O)(=O)Nc3nccs3)cc2)o1,?
Cc1nn2c(C(F)(F)F)cc(-c3ccco3)nc2c1-c1ccccc1,i
N#Cc1ccccc1NC(=O)C1CCCO1 (stereo not drawn),i
CCn1c(-c2ccc(Br)cc2)n[nH]c1=S,2%
O=S(=O)(c1ccc(Cl)cc1)c1cccc(S(=O)(=O)N2CCCCCC2)c1,10%
COc1cccc(C2CC(C(F)(F)F)n3nc(C(=O)Nc4sc5c(c4C#N)CCC5)cc3N2)c1 (stereo not drawn),i
CCC(=O)Nc1nnc(SCC(=O)NC(c2ccccc2)c2ccccc2)s1,i
CN(c1ccc(C(=O)Nc2ccc(F)cc2F)cc1)S(=O)(=O)c1ccccc1,0%
CN1C2CCC1CC(NC1CCCCC1)C2 (stereo not drawn),i
CSc1cccc(NC(=O)C2CCN(C(=O)c3ccc(-c4ccccc4)cc3)CC2)c1,5.7µg/mL*
CCCCn1c(=O)c2c3c(sc2n2c(=S)[nH]nc12)CCCC3,5%
CCOC(=O)C1=C(N)Oc2ccccc2C12C(=O)N(C)C(C)=C2C(C)=O (stereo not drawn),i
Cc1ccc(C2/C(=C(\O)c3ccc(Cl)cc3)C(=O)C(=O)N2c2cccnc2)cc1 (stereo not drawn),i
CCOC(=O)c1c(C(C)(C)C)oc2ccc(OCC(=O)OC)cc12,?
OC(COCc1ccc(Cl)cc1)CN1CCN(c2ccccc2)CC1 (stereo not drawn),i
O=C(CN(c1ccc(F)cc1)S(=O)(=O)c1ccccc1)Nc1ccc2c(c1)OCCO2,i
CCCc1cc(=O)n2[nH]c(SC)nc2n1,4%
Cc1ccccc1NC(=O)CNC(=O)c1cccs1,i
N#CC1=C(NC(=O)c2ccc(COc3ccc(Cl)cc3)cc2)CCC1,1%
O=C(NC1CCCCCC1)c1ccccc1Cl,i
Cc1ccc(N2C(=O)c3cccc4c(N5CCOCC5)ccc(c34)C2=O)c2cccnc12,0%
Cc1ccc(Cl)cc1N1CCN(C(=S)NCc2ccco2)CC1,i
CS(=O)(=O)N(Cc1ccc(C(=O)Nc2cccc(F)c2)cc1)c1ccccc1,i
Fc1ccc(NC(=S)Nc2ccc(Br)cn2)cc1Cl,i
O=C(CN(c1ccc([N+](=O)[O-])cc1)S(=O)(=O)c1ccccc1)Nc1ccc(F)cc1F,0%
CCCN(CCC)S(=O)(=O)c1ccc(NS(=O)(=O)c2cc(Cl)ccc2Cl)cc1,0%
CC1CCN(S(=O)(=O)c2ccc(C(=O)NCCOc3ccccc3)cc2)CC1,i
FC(F)(F)c1cccc(-n2c(-c3cccnc3)n[nH]c2=S)c1,i
COC(=O)Cn1c2ccc(C)cc2c2nc3ccccc3nc21,i
COc1ccc(OC)c(N(CC(=O)Nc2cccnc2)S(=O)(=O)c2ccc(OC)c(OC)c2)c1,i
N#CCSc1ncnc2scc(-c3ccc(Cl)cc3)c12,1%
CCOc1ccc(NS(=O)(=O)c2ccc3c4c(cccc24)C(=O)N3C)cc1,i
OCCN1CCN(C(=S)Nc2ccc(F)c(Cl)c2)CC1,i
O=C(c1ccc(S(=O)(=O)N2CCCCC2)cc1)N1CCCc2ccccc21,i
O=C(CSc1nnnn1C1CCCCC1)N1c2ccccc2Sc2ccccc21,i
O=C(NCCO)C(=O)Nc1cc(Cl)cc(Cl)c1,i
O=[N+]([O-])c1ccc(NC(=S)N2CCC(Cc3ccccc3)CC2)cc1,i
COc1ccc(C(=O)N2c3ccc(F)cc3CCC2C)cc1OC (stereo not drawn),i
O=C(Oc1ccc(C(=S)N2CCOCC2)cc1)c1ccc2ccccc2c1,i
O=C(NCc1ccccn1)NC1CCCCC1,i
Cc1cc([N+](=O)[O-])ccc1NC(=O)C(Sc1ccccc1)c1ccccc1 (stereo not drawn),i
CCc1c(C)sc(NC(=S)Nc2ccn(Cc3c(F)c(F)c(F)c(F)c3F)n2)c1C(=O)OC,i
O=C(Nc1ccc(Cl)cc1)c1ccccc1Br,i
COc1ccc(CNC(=O)CN(c2ccc(C)c(Cl)c2)S(=O)(=O)c2ccccc2)cc1,2%
CCOc1ccccc1NC(=O)CSc1c(C)n[nH]c1C,i
CCn1c(SCC(=O)N2CCCC2)nnc1-c1ccc(Cl)cc1Cl,i

Continued.
structure,Mtb H37Rv
O=C(NNC(=O)C(c1ccccc1)c1ccccc1)c1ccccc1O,2%
O=Cc1ccc(OC(=O)c2ccccc2F)cc1,i
CC1CN=C(N(C)C(=O)Nc2cccc(Cl)c2)S1 (stereo not drawn),i
CCCOc1ccc(C2C(C(=O)OCC)C(=O)CC(C)(O)C2C(=O)OCC)cc1 (stereo not drawn),1%
O=c1c2ccccc2nc(/C=C/c2cccc([N+](=O)[O-])c2)n1-c1cccc2ccccc12,2%
O=C(O)CSCc1ccc(Cl)cc1,0%
C/C(=C\c1ccccc1)CN1CCC(C(=O)N2CCCCC2)CC1,i
COc1cc(CCN2C(=O)c3cccc4cccc(c34)C2=O)c(S(=O)(=O)N2CCN(C)CC2)cc1OC,i
CCOc1ccc(Br)cc1C=O,i
Cc1ccc(NS(=O)(=O)c2ccc(NS(=O)(=O)c3c(C)cc(C)cc3C)cc2)c(C)c1,i
CC(=O)c1ccc(NC(=S)Nc2ccc(C)cn2)cc1,i
Cc1ccc(C(=O)NCCc2ccc(S(=O)(=O)N3CCCC3)cc2)cc1,2%
O=C(Nc1ccccc1Br)C1CCN(C(=O)c2cccs2)CC1,i
CCCCCn1c(C2CC(=O)N(c3ccc(C)cc3C)C2)nc2ccccc21 (stereo not drawn),i
Cc1cc(OCC(=O)Nc2ccc(C(N)=O)cc2)cc(C)c1Br,i
COc1cccc(C(=O)Nc2ccc(C3CC3(Cl)Cl)cc2)c1 (stereo not drawn),5%
COc1cccc(-c2nc(=S)c3c(n2CCO)CCCC3)c1,i
O=C(Cc1c(F)cccc1Cl)N1CCOCC1,1%
CCC(C)c1ccc(OCC(=O)Nc2cccc(OC)c2)cc1 (stereo not drawn),45%
CCOC(=O)c1cc2cccc(OC)c2oc1=O,i
COc1ccc(CCNC(=O)CCC2CCCCC2)cc1OC,i
O=C(Nc1ccc(N2CCOCC2)cc1)c1cccc(F)c1,i
CCc1ccccc1N(CC(=O)NC)S(C)(=O)=O,i
CCOc1ccc(NC(=O)C(=O)NCC2CCCO2)cc1 (stereo not drawn),i
Cc1nnc(SCc2cccc([N+](=O)[O-])c2)n1-c1ccc(Cl)cc1,i
CCCCN(CCCC)C(=O)c1ccccc1NC(=O)c1ccc(C)cc1,i
CC(=O)c1ccc(N2C(=O)CC(N3CCN(c4cccc(C(F)(F)F)c4)CC3)C2=O)cc1 (stereo not drawn),i
COc1ccc2c(=O)c(Oc3ccccc3F)coc2c1C,i
CCCCN(C(=O)c1ccc(Cl)cc1)C1=CC2CCC(C1)N2C (stereo not drawn),i
COc1ccc(OC(C)C(=O)Nc2cccc(C)n2)cc1 (stereo not drawn),2%
NC(=O)COc1ccc2cc(-c3ccc(Cl)cc3)c(=O)oc2c1,i
Cc1c(C(=O)NC(C)(C)C)oc2ccccc12,i
CS(=O)(=O)N(CC(=O)Nc1ccccc1C(N)=O)c1cccc(Cl)c1Cl,i
C=CCn1c(SCC(=O)Nc2cc(C)ccc2C)nc2sc(CC)cc2c1=O,i
COc1cc(OC)c(OC)cc1C=Nn1c(-c2ccc(C(C)(C)C)cc2)n[nH]c1=S,i
COc1ccc(OC(=O)c2cc(Cl)ccc2Cl)cc1,37%
O=C(NCCCCc1ccccc1)c1ccc2ccccc2n1,i
CCC(CC)c1nnc(NC(=O)c2ccco2)s1,1%
CCCC(=O)Nc1ccc(C(=O)N2CCC(C(=O)OCC)CC2)cc1,i
Cc1cc(NC(=O)CSCc2cccc3ccccc23)no1,i
CC1CCc2nc(NC(=O)CN3CCOCC3)sc2C1 (stereo not drawn),i
COc1ccc2cc(Br)ccc2c1CC(=O)Nc1ccccc1F,i
O=C(O)C1CCCN1C(=O)Nc1ccccc1 (stereo not drawn),i
CCCN1C(=O)/C(=C2/C(=O)NC(=S)N2C(C)=O)c2ccccc21,2%
CCCCn1c(Oc2ccc(C(=O)OC)cc2)nc2c1c(=O)n(C)c(=O)n2C,i
CC(C)NS(=O)(=O)c1ccc(OCC(=O)N2CCN(C)CC2)cc1,i
COc1ccc(C(=O)N2CCOCC2)cc1Br,i
CC1(C)Cc2nc(-c3ccccc3)nc(SCC(=O)NCCc3ccccc3)c2CO1,0%
C/C(=N\N=C1\NC(=O)C(CC(=O)Nc2ccccc2C)S1)C1CCCCC1 (stereo not drawn),i
CCCN1C(=O)c2ccc(C(=O)Nc3cc(C)ccc3O)cc2C1=O,i

In another format: results already given
CC(C)NS(=O)(=O)c1ccc(OCC(=O)N2CCN(C)CC2)cc1
  Mtb H37Rv: i

COc1ccc(C(=O)N2CCOCC2)cc1Br
  Mtb H37Rv: i

CC1(C)Cc2nc(-c3ccccc3)nc(SCC(=O)NCCc3ccccc3)c2CO1
  Mtb H37Rv: 0%

C/C(=N\N=C1\NC(=O)C(CC(=O)Nc2ccccc2C)S1)C1CCCCC1 (stereo not drawn)
  Mtb H37Rv: i

Next results:
structure,Mtb H37Rv
Cc1c(CCC(=O)O)c(=O)oc2cc3oc4c(c3cc12)CCCC4,i
O=C(O)c1cc(-c2ccc3c(c2)OCO3)nc2ccccc12,i
Cc1ccc(NC(=O)CSc2nnc(-c3ccc(Cl)c(Cl)c3)n2C)cc1C,2%
COC(=O)CSc1nsc(SCC(=O)OC)c1C#N,?
Cc1cc(Nc2ccccc2O)c2cc(Br)ccc2n1,i
Cc1cc(Cl)c(OCCCCn2ccnc2)c(Br)c1,i
CC(NC(=O)c1ccc(Cl)c(Cl)c1)c1nnc(SCC(=O)Nc2ccc(F)cc2)n1C (stereo not drawn),i
CS(=O)(=O)Nc1ccccc1C(=O)c1ccccc1,i
S=C(NC(c1ccccc1)(c1ccccc1)c1ccccc1)N1CCOCC1,1%
COc1cc(NC(=S)NC2CC(C)(C)NC(C)(C)C2)cc(OC)c1,2%
Cc1onc(-c2ccccc2Cl)c1C(=O)NC(=S)NCc1cccnc1,i
CCOC(=O)NC(=O)CSc1nc2ccccc2s1,i
COc1ccccc1CN1C(=O)c2ccccc2C1=O,4%
Nc1ccc(Sc2nnnn2-c2ccccc2)c(Cl)c1,i
CCN(CC)C(=O)CSc1nc2sc3c(c2c(=O)n1C)CCc1ccccc1-3,1%
CN(C)C(C#N)c1cn(C)c2ccccc12 (stereo not drawn),1%
O=C(O)C1C2CCC(O2)C1C(=O)Nc1cccc(F)c1 (stereo not drawn),i
COc1cc(Cl)cc(C#N)c1OCC(=O)O,i
CCOC(=O)Cc1csc(NC(=O)c2ccc(Br)s2)n1,i
Cc1ccc(C(=O)n2nc(-c3ccccc3)nc2N)cc1,i
CC(=O)c1ccccc1OCC(O)CN1CCOCC1 (stereo not drawn),i
O=C(Nc1c(F)c(F)c(F)c(F)c1F)c1ccc(Cl)cc1,i
Oc1ccc(-c2csc(Nc3ncccn3)n2)c(O)c1,i
CCOc1ccccc1C(=O)NC(C)C1CC2CCC1C2 (stereo not drawn),i
COc1ccc(NC(=O)c2ccc(N(C)S(=O)(=O)c3ccccc3)cc2)cc1Cl,i
Clc1ccc(-c2noc(COc3ccc4c(c3)OCO4)n2)cc1,1%
CC(C)C(=O)Nc1ccc(NC(=O)c2cc(Br)ccc2Cl)cc1,1%
CCOC(=O)c1cc(C)sc1NC(=O)c1ccccc1,i
Cc1ccc(S(=O)(=O)Nc2ccc(-c3cn4ccsc4n3)cc2)cc1,i
CCC(=O)NC(=S)Nc1ccc(NC(=O)c2ccc(OC)c([N+](=O)[O-])c2)cc1,i
CCN1CCN(c2ccc(NC(=O)c3cccc(OCc4ccccc4)c3)cc2)CC1,?
